High-throughput results from PubChem BioAssay.
Vif TR-FRET = inhibitors of Vif binding to APOBEC3G peptide, primary screen, biochemical, TR-FRET, GST-Vif 1-94, biotin-A3G peptide, dose response retest (AID 1117319) | inhibition, %; hits with a dose series show IC50 in µM | hit rate 0.57% among 260,000 | TR-FRET GST-Vif / biotin-A3G peptide binding; higher % means a stronger effect; test concentration not given here; strong numbers were not always called active;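 active = above the screen mean plus three standard deviations and confirmed in dose response; inconclusive = results disagree or hit not tested in dose response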;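 also: Vif residues 1-94 fused to GST binding biotinylated APOBEC3G peptide 110-148; 0% = full assay without inhibitor and 100% = GST in place of GST-Vif; retest series ran down from 100 µM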
Calb FLC = C. albicans growth inhibition with fluconazole, primary screen, CaCi-2 strain, Alamar Blue fluorescence; hit rate 0.57% among 300,000; C. albicans CaCi-2 (fluconazole-resistant clinical isolate) + fluconazole, 48 h; AID 1979, 2009; growth inhibition, % (no concentration beside the values);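 active = most replicates above 75%; inconclusive = exactly half above 75%; inactive = most below 75%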;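 also: all wells also contain fluconazole at 8 µg/ml as a sub-toxic cotreatment; 0% = median of DMSO wells and 100% = median of geldanamycin control wells; wells of about 8 µL received 7.5 nL stock; the first replicate is given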
T cruzi repl = inhibitors of intracellular T. cruzi growth, primary screen, luminescence, NIH3T3 host cells | inhibition, % (test concentration not listed) | T. cruzi beta-gal in NIH3T3, 90 h | hit rate 1.4% among 300,000 | AID 1885, 2009;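 active = mean inhibition across valid replicates above about 55%, limit read from the data; inconclusive = mean below that limit but half or more replicates reach it; inactive = mean below it, under half of replicates reach it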;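 also: signal also drops with host cell toxicity which is not excluded here; 0% = plate median of DMSO wells and 100% = zero luminescence signal; higher percent means less beta-gal luminescence so fewer parasites; stock transfer was 50 nL into about 50 µL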
rRNA inh HTS = reduced GFP signal of wild-type E. coli, primary screen, bacterial rRNA inhibitor project, GFP/RFP fluorescence, OD600, single point | GFP signal change (wild-type ribosome), % (test concentration not listed) | hit rate 1.6% among 350,000 | E. coli WT GFP vs humanized-ribosome RFP mutants, 24 h; hits give low values; DMSO median 0, no signal -100 | AID 720706, 2013;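 active = significant combined selectivity score with lowered wild-type GFP, culture density cut under 30%, mutant RFP and density less affected; inactive = any of these conditions unmet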; also: one replicate is shown; some compounds called inactive have numbers as strong as hits
Beta apoptosis = inhibitors of cytokine-induced beta cell apoptosis, primary screen, luminescence | INS-1E cytokine-induced death, ATP luminescence, 48 h; percent of positive-control rescue, neutral wells zero | protection from apoptosis, % (no concentration beside the values) | hit rate 0.8% among 300,000 | AID 435005, 2010;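 active = all replicates at 75% or more, or half of them and the mean; inconclusive = half reach 75% but not the mean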;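 also: 0% = cytokine-treated negative control wells and 100% = positive control rescue; higher means more ATP so stronger rescue from cytokine killing; wells of about 40 µL received 100 nL stock; the first replicate is given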
AF4-AF9 inh = inhibitors of AF4 peptide binding to AF9, primary screen, biochemical, AlphaScreen, biotin-AF4 peptide, FLAG-AF9, single point; hit rate 0.47% among 350,000; Protein AF-9 (Homo sapiens), P42568; inhibition, % at 10 µM;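 active = every replicate reaching a set inhibition limit, whatever the replicate mean, cut at about 25% in these data; inconclusive = mean inhibition reaches that limit but some replicates miss it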;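 also: 0% = plate neutral control median and 100% = total signal loss; the record names both 10 and 1 µM as test concentration; the first replicate is given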
Target sequence (P42568 whole entry, looked up): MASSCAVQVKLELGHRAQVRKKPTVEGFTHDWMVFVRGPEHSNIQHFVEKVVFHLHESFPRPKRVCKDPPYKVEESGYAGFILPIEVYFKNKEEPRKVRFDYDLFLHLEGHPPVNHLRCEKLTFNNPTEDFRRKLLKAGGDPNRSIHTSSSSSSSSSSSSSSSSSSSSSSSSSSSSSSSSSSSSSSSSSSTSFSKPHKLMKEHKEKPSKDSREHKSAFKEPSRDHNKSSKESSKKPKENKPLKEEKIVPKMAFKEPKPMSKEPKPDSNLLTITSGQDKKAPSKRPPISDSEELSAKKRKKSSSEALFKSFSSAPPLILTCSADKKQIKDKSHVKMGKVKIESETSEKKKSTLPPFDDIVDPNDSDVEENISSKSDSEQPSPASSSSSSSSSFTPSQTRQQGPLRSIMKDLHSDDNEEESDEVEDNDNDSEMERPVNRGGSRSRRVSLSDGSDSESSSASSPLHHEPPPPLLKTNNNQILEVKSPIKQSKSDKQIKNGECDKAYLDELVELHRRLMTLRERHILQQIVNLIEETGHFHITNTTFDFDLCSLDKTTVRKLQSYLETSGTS
A1 inh = caspase 3/7 activation in MEF A1-2A-BIM cells, primary screen, A1 inhibitor project, cell-based, luminescence, HTS | hit rate 0.066% among 330,000 | AID 2462, 2010 | caspase activation, % (concentration not given with the values) | Caspase-Glo 3/7 luminescence, 3 h; percent of clofoctol response, vehicle zero;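 active = over half of replicate activation scores above 10%, or exactly half above 10 with the replicate mean above 10; inconclusive = replicate mean below 10 yet half the replicates above 10; inactive = over half of replicates below 10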;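 also: wells of about 30 µL received 50 nL stock; many hits fall short of the cut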
RanGTP-Impb inh = inhibitors of RanGTP-importin-beta interaction, primary screen, biochemical, FRET, CFP-Ran, YFP-importin-beta, homogeneous; Ran GTPase (GTP-bound) - importin-beta complex; cell-free CFP-Ran/YFP-importin-beta FRET ratio; inhibition, % (concentration not given with the values); hit rate 1.1% among 300,000;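 active = most replicates above 15%; inconclusive = exactly half above 15%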;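 also: 0% = DMSO wells and 100% = Ran loaded with GDP instead of GTP; wells of about 40 µL received 100 nL stock; the first replicate is given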
rRNA inh HTS OD600 = second read-out of rRNA inh HTS, no call of its own (marks repeat the call); OD600 change, %; measured here: OD600 growth;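 optical density of the mix in the first replicate; 0 = DMSO median and -100 = no signal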
rRNA inh HTS RFP = also measured in rRNA inh HTS; calls as there; RFP signal change, %; measured here: RFP humanized mutant strains;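 first replicate; 0 = DMSO median and -100 = no signal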
Active calls of the source: *; ? = inconclusive; · = no result given.

SMILES	Vif TR-FRET	Calb FLC	T cruzi repl	rRNA inh HTS	rRNA inh HTS OD600	rRNA inh HTS RFP	Beta apoptosis	AF4-AF9 inh	A1 inh	RanGTP-Impb inh
O=C(OCc1nnc(-c2ccc([N+](=O)[O-])cc2)o1)C1CCN(C(=O)c2ccc(F)cc2)CC1	1%	·	·	·	·	·	-3	1.2	-0.6	·
N#CC1=C(N)Oc2c(ccc3ccccc23)C1c1ccsc1 (stereo unspecified)	?	48	75*	·	·	·	4	·	0.4	-2.7
CCOc1ccccc1NC(=O)c1ccc(OCC)c([N+](=O)[O-])c1	-10%	-6	12	15	5	-1.5	0	-6.4	1.4	-1.9
COc1ccc(F)cc1S(=O)(=O)NC1CCCCCC1	-2%	-15	4	·	·	·	-7	·	1.3	9.7
CC(=O)c1cc2c(cc1NC(=O)Cn1nc(-c3ccc(C)cc3)ccc1=O)OCO2	3%	29	21	7	7	2.1	-3	-0.6	0.4	1.8
CCOC(=O)c1c(C)nc(C)c(C(=O)OCC)c1-c1cccnc1	-12%	-6	10	4	7	3.0	-8	-2.5	0.4	1.0
Cc1ccccc1-c1cc(C(=O)NCc2cccs2)nn1CC1CC(c2cccc([N+](=O)[O-])c2)=NO1 (stereo unspecified)	·	·	·	8	9	-1.1	5	7.0	0.4	·
CCC(C)NC(=S)Nc1ccccc1OC (stereo unspecified)	2%	3	0	·	·	·	-7	·	-0.1	0.0
N#C/C(=C\c1ccc(C(=O)O)cc1)c1ccccn1	·	3	5	-5	-21	-3.1	·	-3.2	-0.2	?
CCc1cc(C(=O)Nc2ccc(OC)nc2)sc1C	·	4	2	-2	-13	-0.1	-1	1.0	0.1	-2.3
COc1cc(CNCCc2ccc(S(N)(=O)=O)cc2)ccc1OCC(=O)N1CCCCC1	·	-11	15	·	·	·	·	·	0.4	-0.2
CCN1CCN(c2ccc(S(=O)(=O)N3CCOCC3)cc2NC(=O)C(C)Oc2cccc(Cl)c2)CC1 (stereo unspecified)	4%	-13	30	0	-1	0.0	0	8.3	-1.5	2.5
Nc1nnnn1/N=C/c1cccs1	8%	1	0	19	10	0.5	-5	6.8	0.2	-2.1
COc1cc(/C=C(\C#N)C(=O)Nc2cccc(C(=O)O)c2)ccc1OCc1ccc(F)cc1	·	10	-8	4	4	-1.3	2	3.3	-1.3	4.3
COc1cccc(/C=C/C(=O)OCC(=O)Nc2cccc(S(=O)(=O)N(C)C)c2)c1	·	-1	-2	-22	-24	-4.8	1	-0.3	0.6	-1.2
Cc1ccccc1NCc1nnc2n1CCCCC2	12%	23	-10	·	·	·	-7	·	0.2	-3.2
O=C(CCCC(=O)OCC(F)(F)C(F)F)Nc1ccc(NC(=O)CCCC(=O)OCC(F)(F)C(F)F)cc1	-1%	-14	-10	·	·	·	5	·	0.4	1.2
CC(=O)NC(Cc1c[nH]c2ccccc12)C(=O)NCCc1ccccc1 (stereo unspecified)	·	7	1	5	-5	-6.2	·	-4.0	0.0	?
Nc1nonc1-n1nnc(C(=O)N/N=C/c2ccco2)c1-c1ccccc1	·	-2	7	2	-6	0.6	-2	-16	-0.1	7.7
COc1ccc(C(=O)Cc2cc(OC)c(OC)cc2[N+](=O)[O-])c(OC)c1	4%	5	-9	7	9	-1.3	1	5.0	-0.3	4.9
CC(NCC(=O)Nc1cc(Cl)cc(Cl)c1)c1ccccc1 (stereo unspecified)	-10%	-3	8	-58	-80	-17	-2	-3.1	-0.9	-5.1
CCc1ccc(OCC(=O)Nc2ccc3c(c2)OCCO3)cc1	·	-21	-15	-7	9	2.6	4	-2.0	-0.3	?
CCOCc1c(C(=O)NC2CCCCCC2)oc2ccccc12	·	-5	7	-3	-5	-1.5	4	-3.2	1.1	1.7
CN(Cc1ccccn1)Cc1nc(Cc2ccccc2Cl)no1	-5%	-6	-6	5	-1	2.3	-6	0.7	-0.1	-4.1
C=CCOc1ccc2oc(=O)cc(C)c2c1	-5%	4	3	·	·	·	-2	·	0.0	3.2
Next part:
SMILES	Vif TR-FRET	Calb FLC	T cruzi repl	rRNA inh HTS	rRNA inh HTS OD600	rRNA inh HTS RFP	Beta apoptosis	AF4-AF9 inh	A1 inh	RanGTP-Impb inh
CC1(C)C2CCC1(C)C(OCC[N+](C)(C)CC(=O)OC1CCCCC1)C2 (stereo unspecified)	·	67	63*	-53	-72	-13	47	-0.3	0.4	1.0
CC(=O)N1N=C(c2ccccc2)CC1c1cn(C)c2ccccc12 (stereo unspecified)	-4%	0	6	·	·	·	-2	·	-0.5	-1.8
CN(C(=O)COC(=O)c1cc(Br)c(Br)s1)C1CCS(=O)(=O)C1 (stereo unspecified)	11%	?	-7	·	·	·	4	·	0.2	-4.7
CC(C)(C)CN1CCN(Cc2cc3ccccc3[nH]2)CC1CCO (stereo unspecified)	·	-7	-9	4	5	-0.4	·	-8.2	-0.1	1.5
Fc1ccc(Br)cc1C1C=C(c2ccc(Br)s2)Nc2ncnn21 (stereo unspecified)	-53%	10	-5	·	·	·	3	·	-0.2	-67
O=C(COC(=O)C1CC1)Nc1ccc(S(=O)(=O)N2CCOCC2)cc1	-5%	·	·	15	14	3.4	-3	-3.3	1.2	·
COc1ccc(/C=N/NC(=O)c2c(C)nnn2-c2nonc2N)cc1OC	-3%	-7	10	8	10	-2.2	2	-2.4	-0.4	?
COc1ccc(NC(=O)Nc2nc3ccccc3s2)cc1	-5%	-18	14	0	2	0.7	-3	-3.5	-0.7	-0.2
COC(CNC(=O)c1cc(-c2ccncc2)nc2ccc(S(=O)(=O)N3CCOCC3)cc12)OC	-2%	-6	-2	8	8	3.5	1	-0.8	0.5	2.6
O=C(O)c1ccc(NC(=O)c2cn(-c3ccccc3)nc2-c2ccccc2)cc1	·	-4	-3	-26	-22	-1.2	-5	-0.1	-0.2	2.3
CSc1ccc(CCNC(=O)c2ccc(CS(=O)Cc3ccc(Cl)cc3)o2)cc1 (stereo unspecified)	-11%	-23	22	-13	-42	-5.2	-1	-1.0	-0.4	4.3
CCn1c(=O)c2sccc2n2c(CCCC(=O)NC3CCN(Cc4ccccc4)CC3)nnc12	·	-13	6	19	13	0.6	0	-1.6	-0.6	0.8
C=CCC[C@H](Cc1ccc(F)cc1)C(=O)OC[C@H](C)NC(=O)[C@@H](CC=C)CC(=O)N[C@H](CO)Cc1ccccc1	·	·	·	6	12	16	-5	1.2	0.4	·
O=C(NCCCn1ccnc1)/C(=C\c1ccc(Br)cc1)NC(=O)c1ccccc1	·	-2	-4	4	3	0.0	-3	3.5	0.4	0.4
Cn1c(=O)c2c(ncn2CC(=O)Nc2cccc(S(=O)(=O)Nc3ccccc3F)c2)n(C)c1=O	4%	-8	-3	8	4	-2.8	0	0.9	1.2	4.3
CCOC(=O)c1ccccc1OC(=O)CS(=O)c1ccccc1[N+](=O)[O-] (stereo unspecified)	11%	20	-21	13	11	-0.8	-10	-0.4	0.2	0.0
O=C(NCCc1ccccc1)C1=CCN(S(=O)(=O)c2ccccc2)CC1	-2%	4	-8	-3	0	3.8	-3	-2.2	0.2	3.3
CC(C)C(NC(=O)c1ccccc1F)C(=O)NCCc1ccccn1 (stereo unspecified)	·	20	0	14	15	-6.5	0	-0.3	0.9	-0.3
O=C1C=C(c2ccc3[nH]ccc3c2)C[C@@H](c2ccc(F)cc2)C1	·	·	·	-24	-26	-10	-2	3.4	1.4	·
CCCCN(C(=O)c1ccc2c(c1)OCCO2)c1c(N)n(CCCC)c(=O)[nH]c1=O	-1%	-9	-14	7	11	0.8	-3	-1.0	0.3	0.3
CCc1cc2cc(C)c(C)cc2nc1SCC(=O)NNC(=O)c1ccco1	3%	-8	2	-2	-3	-0.6	1	6.7	-1.2	-0.4
Cc1nn(Cc2ccccc2Cl)c(C)c1NC(=O)Cn1nc([N+](=O)[O-])c(Cl)c1C	0%	0	-2	·	·	·	-6	·	-0.1	7.6
CC(C)[C@H](NC(=O)N1CCn2c1nc1ccccc12)C(=O)NCCc1ccccc1	3%	-35	18	1	-2	-0.4	-5	-0.1	0.8	0.4

Entries above that have fluorine, in the order listed:
SMILES	Vif TR-FRET	Calb FLC	T cruzi repl	rRNA inh HTS	rRNA inh HTS OD600	rRNA inh HTS RFP	Beta apoptosis	AF4-AF9 inh	A1 inh	RanGTP-Impb inh
O=C(OCc1nnc(-c2ccc([N+](=O)[O-])cc2)o1)C1CCN(C(=O)c2ccc(F)cc2)CC1	1%	·	·	·	·	·	-3	1.2	-0.6	·
COc1ccc(F)cc1S(=O)(=O)NC1CCCCCC1	-2%	-15	4	·	·	·	-7	·	1.3	9.7
COc1cc(/C=C(\C#N)C(=O)Nc2cccc(C(=O)O)c2)ccc1OCc1ccc(F)cc1	·	10	-8	4	4	-1.3	2	3.3	-1.3	4.3
O=C(CCCC(=O)OCC(F)(F)C(F)F)Nc1ccc(NC(=O)CCCC(=O)OCC(F)(F)C(F)F)cc1	-1%	-14	-10	·	·	·	5	·	0.4	1.2
Fc1ccc(Br)cc1C1C=C(c2ccc(Br)s2)Nc2ncnn21 (stereo unspecified)	-53%	10	-5	·	·	·	3	·	-0.2	-67
C=CCC[C@H](Cc1ccc(F)cc1)C(=O)OC[C@H](C)NC(=O)[C@@H](CC=C)CC(=O)N[C@H](CO)Cc1ccccc1	·	·	·	6	12	16	-5	1.2	0.4	·
Cn1c(=O)c2c(ncn2CC(=O)Nc2cccc(S(=O)(=O)Nc3ccccc3F)c2)n(C)c1=O	4%	-8	-3	8	4	-2.8	0	0.9	1.2	4.3
CC(C)C(NC(=O)c1ccccc1F)C(=O)NCCc1ccccn1 (stereo unspecified)	·	20	0	14	15	-6.5	0	-0.3	0.9	-0.3
O=C1C=C(c2ccc3[nH]ccc3c2)C[C@@H](c2ccc(F)cc2)C1	·	·	·	-24	-26	-10	-2	3.4	1.4	·

This is a subset (hit frequency here may not be typical).
